Bead autofluor: compound fluorescence in toxin protease inhibitor counterscreen; compound autofluorescence counterscreen, microsphere flow cytometry; active compounds read high; fluorescence intensity (concentration not given with the values); 3.1% of 360,000 active; AID 624483;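 active means at least 3 SD above the mean of all compounds, about 16000 in these data; inconclusive means too few beads counted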;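 further: 100 nL of 1 mM stock went into each well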
RN4220 kill: S. aureus RN4220 growth inhibition. OD600, 16 h. 0.33% of 330,000 active. inhibition, % (no concentration beside the values). AID 1259311;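 active means z-score of -3 or lower and OD600 up to 0.18 on both plates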;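 further: plate controls were untreated cells for no effect and reference antibiotic for full effect; stock transfer was 100 nL into about 80 µL; one replicate is shown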
Mtb hypoxia rep: Mtb hypoxia fluorescent reporter inhibition | M. tuberculosis hypoxia-regulated fluorescent reporter, fluorescence | 0.1% of 300,000 active | fluorescence inhibition, % (concentration not given with the values);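 active means 35 to 45% if threefold the growth effect, above 45% if 1.5-fold the growth effect; inactive means the rest, general growth blockers included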;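 further: wells of about 50 µL received 100 nL stock; 0% = vehicle wells and 100% = reference inhibitor wells; whole bacteria with a GFP reporter of the hypoxia response; strong numbers were not always called active; many hits fall short of the cut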
BJeLR viability: BJeLR cell viability loss; inhibition, % (concentration not given with the values); AID 1554; 0.17% of 300,000 active; BJeLR (HRASV12) viability, CellTiter-Glo ATP luminescence, 48 h; reference of the scale not given here;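 active means replicate mean above 50%; inconclusive means above 50% but judged a plate artefact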;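 further: 50 nL library stock added to about 25 µL; numbers are from one replicate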
Sa ugtP lethal: kills S. aureus RN4220 lacking UgtP | S. aureus RN4220 ugtP deletion, OD600 growth, 16 h; some inactives read as strong as hits | growth inhibition, % (test concentration not listed) | 0.54% of 330,000 active | AID 1259309;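 active means z-score under -3 and OD600 up to 0.15 on both plates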;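 further: plate controls were untreated wells for no effect and antibiotic for full effect; wells of about 80 µL received 100 nL stock; the first replicate is given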
PrP UTR inh: suppresses PrP 5' UTR mRNA reporter expression; cell-based PrP 5' UTR mRNA reporter, plate reader; inhibition, % (test concentration not listed); 0.35% of 340,000 active; AID 488862;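 active means every replicate at 50% or more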;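 further: 0 = median of the neutral control wells; tested in H4 reporter cells; numbers are from one replicate; inactives centre near -14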
Mtb hypoxia rep growth: recorded beside Mtb hypoxia rep, whose call it bears; growth inhibition, %; measured here: M. tuberculosis growth (absorbance);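 0% = vehicle and 100% = reference antibiotic; read after six days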
* marks the source's active call; other numbers are inactive results; ? = inconclusive; / = no result given; & = joins results of further samples.

mol | Mtb hypoxia rep growth | Bead autofluor | Sa ugtP lethal | BJeLR viability | RN4220 kill | PrP UTR inh | Mtb hypoxia rep
COc1ccc2c(c1)C1C(CO2)C(c2ccccc2)[C@]2(C)C(=O)Nc3ccc(Cl)cc3C(=O)N12 (stereo not given in full) | 10 | / | -1 | / | -21 | / | 3
COc1ccnc(NCc2cccnc2)c1C#N | 11 | 10886 | 1 | 13 | 6.1 | -14 | 0
O=C(O)COCC(=O)N1CCN(C2c3ccccc3-c3ccccc32)CC1 | 7 | 4218 | -7 | -6 | -4.5 | 5 | 1
CCNC(=S)NNC(=O)c1cc(C2CC2)nc2ccccc12 | 10 | 22689* | 5 | 0 | 6.4 | -42 | 11
CCN1C(=O)C2C(c3ccc(SC4CCCCC4)c(OC)c3)N3CCCC[C@@]3(C(=O)OC)C2C1=O (stereo not given in full) | 17&6 | / | 2&16 | / | -3.3&2.6 | / | 1&3
Cc1ccccc1CNS(=O)(=O)c1ccccc1[N+](=O)[O-] | 8 | 4583 | 3 | 0 | 14 | -8 | 5
Nc1ccc(-c2n[nH]c(=O)c3ccccc23)cc1N | 12 | 15625 | 0 | -6 | 1.4 | 5 | 3
CCCCc1ccc(/C=C2/C(=O)ON=C2c2ccccc2)s1 | -2 | 2217 | 6 | -8 | 1.4 | -8 | 6
O=C(CCN1C(=O)COc2ccccc21)NCCN1CCN(c2ccccc2F)CC1 | 5 | 9839 | 4 | -6 | -2.1 | -14 | 9
Cc1cccc(NC(=O)COc2ccc(C=Nn3cnnc3)cc2)c1 | 0 | / | 13 | / | -0.4 | / | -6
Cc1ccc(C(=O)NC2CC(C)(C)NC(C)(C)C2)cc1C | / | 4455 | 2 | -7 | 1.5 | -13 | /
CN(C)/C=N/c1cc(=O)[nH]c(=O)n1C | / | 4178 | / | 3 | / | -5 | /
c1ccc(-c2cc3c(ccc4nonc43)nn2)cc1 | 10 | 4212 | -3 | -10 | 7.6 | -37 | 0
O=C(Cn1ncc2c([nH]c3ccccc32)c1=O)Nc1cccnc1 | -4 | 5486 | 4 | 6 | 1.1 | -17 | 0
Cc1ccc2c(c1)C(=O)CC1(CCCC1)O2 | 4 | 4118 | 18 | -12 | 13 | -12 | 7
Cc1ccc(OCc2nnc(SCC(=O)Nc3nccs3)n2-c2ccccc2)cc1C | / | 2698 | -2 | 1 | -1.2 | -13 | /
COc1ccc(/C=C/C(=O)NCC(=O)N=Nc2c(O)[nH]c3ccc([N+](=O)[O-])cc23)cc1 | 2 | 5860 | -12 | 6 | -4.7 | 10 | 1
CCOc1ccc(NC(=O)C(CC(=O)O)Cc2ccccc2)cc1 (stereo not given) | 0 | 4478 | 5 | 6 | -2.0 | -32 | 8
CC(O)c1nc2ccccc2n1C(C)c1ccccc1 (stereo not given) | -5 | 3875 | 7 | 2 | 4.8 | -25 | 5
Nc1ncnc2c1ncn2[C@@H]1O[C@H](CNCc2c(OCc3ccccc3F)ccc3ccccc23)[C@@H](O)[C@H]1O | 0 | 2956 | -5 | / | 0.2 | -27 | -3
COC(=O)C(C)n1nc(C)n(-c2ccc(C)cc2)c1=O (stereo not given) | 2 | 22187* | -1 | -4 | 5.3 | -24 | -1
Nc1nnc(-c2ccncc2)s1 | -5 | 15057 | 3 | -2 | 1.5 | -10 | 4
CCCCC(=O)N(c1ccc(C(=O)O)cc1)c1nc(-c2ccc(Cl)cc2)c(CC)s1 | 3 | 5178 | -3 | -6 | 1.4 | -9 | 1
O=C1Nc2ccccc2N(O)N1c1cc(-c2cccc(Cl)c2)no1 | 7 | 9445 | 1 | -3 | 7.7 | -13 | 11
COc1ccc(CCNC(=O)c2cn(C)c3ccc(S(=O)(=O)N4CCOCC4)cc3c2=O)cc1OC | -3 | 5594 | 2 | 0 | 1.4 | -8 | -16
COc1ccc(CN2C(=O)c3ccccc3C(/C=N/OCc3ccc(Cl)cc3)C2=O)cc1 (stereo not given) | / | 2253 | / | 10 | / | -18 | /
Cc1cccc(NC(=O)c2cc([N+](=O)[O-])ccc2Cl)c1O | 3 | 4046 | -13 | -7 | 0.4 | -18 | -9
CCOC(=O)N1CCN(C(=O)CN(C)S(=O)(=O)c2ccc3c(c2)C(C)(C)C(=O)N3C)CC1 | 14 | 6723 | 3 | -3 | 3.9 | -32 | 10
Cn1cc([N+](=O)[O-])c(C(=O)NCc2ccccc2)n1 | -6 | 5703 | 1 | -3 | -1.5 | -15 | -2
CCOC(=O)C(=CNc1cccc(N)n1)C(=O)OCC | 4 | 20625* | -3 | -8 | 1.8 | -13 | 4
Cc1[nH]nc2c1/C(=N\O)CC(C)(C)C2 | / | 4185 | / | 9 | / | -17 | /
N#C/C(=C\c1ccc(O)c(O)c1)C(=O)Nc1cccc2ncccc12 | / | 5240 | / | -1 | / | -16 | /
Cc1ccccc1-n1c(SCC(=O)N(C)C2CCS(=O)(=O)C2)nnc1-c1ccncc1 (stereo not given) | 1 | 4561 | -3 | -24 | -0.7 | -25 | -12
CCN=C1SC(C(=O)Nc2cccc(Br)c2)CC(=O)N1CC (stereo not given) | -1 | 2726 | -6 | 6 | 1.6 | -4 | 5
Cn1cc(C=NO)nc2c(=O)n(-c3ccccc3)c(=O)nc1-2 | 7.7* | / | -2 | / | 6.8 | / | 38*
O=C(NCCNC(=O)c1ccc(F)cc1)c1ccc(F)cc1 | 5 | 5868 | 9 | -6 | 1.7 | -31 | 17
CCOC(=O)C1CCCCN1S(=O)(=O)c1cc2c(cc1C)NC(=O)CO2 (stereo not given) | / | 6846 | -2 | 1 | 4.7 | -18 | /
CCC(C)NC(=O)C(=O)NCC1CCCN1CC (stereo not given) | 5 | 4281 | 5 | 0 | 9.1 | 10 | 10
O=[N+]([O-])c1cccc(-c2c(-c3ccccc3)ncc3ccc(F)cc23)c1 | 11 | 4012 | -1 | / | 0.2 | -26 | 2
COc1cc(OC)c(OC)cc1C=NNC(=O)c1ccc2nc[nH]c2c1 | -2 | / | 15 | / | -0.6 | / | 9
CCN(CC)S(=O)(=O)c1ccc(Cl)c(NC(=O)COC(=O)c2ccc(O)cc2)c1 | -1 | 4154 | 4 | -16 | 3.9 | -40 | -2
COc1ccccc1N1CCN(CCN2C(=O)C3CCCCN3C2=O)CC1 (stereo not given) | 13 | 3482 | 9 | 13 | -1.8 | -17 | 10
COc1ccc(C(=O)N/N=c2\oc3ccccc3cc2C(=O)NCc2ccccc2)cc1 | / | 2717 | / | 1 | / | 6 | /
CCOC(=O)N1CCN(C(=O)CSc2nnc(-c3ccc(Cl)s3)o2)CC1 | / | / | -3 | 1 | -3.3 | / | /
O=[N+]([O-])c1cccnc1N1CCCNCC1 | 2 | 3560 | 5 | 0 | 0.4 | -25 | 3
C[C@H](NC(=O)N1C[C@H]2C[C@@H](C1)c1cccc(=O)n1C2)C(=O)Nc1ccc(F)c(F)c1 | / | 5713 | -12 | -4 | 3.1 | -11 | /
CSc1nc(N)nc(C(C)C)n1 | 14 | 6819 | 7 | 3 | 3.5 | -19 | 7
NC1=NC(=O)/C(=C/C=C/c2cccs2)S1 | 9 | 5717 | -3 | -6 | 3.2 | -43 | 14

Only Bead autofluor, Sa ugtP lethal and Mtb hypoxia rep growth (3 entries from above):
structure | Bead autofluor | Sa ugtP lethal | Mtb hypoxia rep growth
COc1ccc(CCNC(=O)c2cn(C)c3ccc(S(=O)(=O)N4CCOCC4)cc3c2=O)cc1OC | 5594 | 2 | -3
Cc1cccc(NC(=O)c2cc([N+](=O)[O-])ccc2Cl)c1O | 4046 | -13 | 3
O=C(NCCNC(=O)c1ccc(F)cc1)c1ccc(F)cc1 | 5868 | 9 | 5

(list continues)
mol | Mtb hypoxia rep growth | Bead autofluor | Sa ugtP lethal | BJeLR viability | RN4220 kill | PrP UTR inh | Mtb hypoxia rep
CCc1c(C)sc(NC(=O)c2cccs2)c1C(N)=O | 4 | 8000 | -10 | -9 | 6.6 | -82 | 10
Cc1cccc(N2C(=O)SC(N(C)c3ccccc3)C2=O)c1 (stereo not given) | / | 2836 | 7 | 1 | 2.8 | -25 | /
O=C(Nc1ccccc1)Nc1ccc2snnc2c1 | / | 4538 | -9 | -3 | -10 | -49 | /
CN(C)CCCn1c(N)c(S(=O)(=O)c2ccccc2)c2nc3ccccc3nc21 | 3 | 7332 | 1 | -3 | -1.2 | / | -1
CCC(Sc1nc2cc(OC)c(OC)cc2c(=O)n1Cc1ccco1)C(=O)NCCOC (stereo not given) | 6 | 9697 | 8 | 5 | 2.8 | -12 | 11
CCOC(=O)C1CCCN(Cc2ccc(OC)cc2OC)C1 (stereo not given) | 2 | ? | 12 | -2 | 6.6 | -16 | 8
COc1ccc(CNC(=O)C2CCC(=O)N(CCCN3CCCC3=O)C2)cc1 (stereo not given) | 16 | 5482 | -3 | 3 | -2.1 | 7 | 0
CCCCn1nc(C(=O)Nc2ccc(S(=O)(=O)Nc3ncccn3)cc2)c2ccccc2c1=O | 15 | 3947 | 3 | 8 | -0.8 | 5 | 12
O=S(=O)(Nc1nc2ccccc2s1)c1cnc(Cl)c(Br)c1 | 1 | 4171 | 42 | -9 | 40 | -13 | 0
C[C@H]1CN=C(Nc2ccccc2)N1CCC1CCCCC1 | / | 3892 | / | 1 | / | -3 | /
O=C(NCc1ccccc1Cl)NC(=O)c1ccccc1 | -9 | 2571 | -6 | -8 | 1.1 | 4 | 3
Cc1c(/C=C/C(=O)c2ccccc2O)cnn1C | 4 | 2473 | 1 | -6 | 7.2 | -90 | 7
O=C(O)CCCCCNC(=O)/C(=C\c1ccco1)NC(=O)c1ccco1 | 8 | 3380 | 8 | 1 | 4.1 | -17 | 12
COc1ccc(NC(=O)Nc2ccccc2C(N)=O)cc1 | 5 | 2692 | -1 | 4 | 3.0 | -36 | 4
COc1cccc2[nH]c(C(=O)NC(C)c3ccccc3)cc12 (stereo not given) | 2 | 3884 | -2 | 1 | 3.0 | -20 | 13
Cc1ccccc1C(=O)OC1CCN(C)CC1 | 2 | 3963 | 7 | 6 | 5.3 | -10 | 15
Cc1cccc(CN2CCSCC2)c1 | -4 | 3972 | -5 | 4 | 7.2 | -24 | -5
CCN1CCc2c(C#N)c(N3CCCCC3)nc(N3CCOCC3)c2C1 | / | 3206 | 14 | 1 | -0.6 | -23 | /
C=CCc1cccc(OC)c1OCCOCCn1ccnc1 | 11 | 2177 | 5 | 11 | 4.8 | -5 | 5
c1ccc(CN2CCN(Cc3nnc(-c4ccccc4)o3)CC2)cc1 | 4 | 4328 | 2 | -4 | 6.3 | -8 | -4
Cc1ccc(S(=O)(=O)Nc2ccccc2)cc1C(=O)N1CCCC1 | -4 | 4190 | 8 | -4 | 4.7 | -7 | -3
CCN(CC)c1ccc(/C=c2/sc3nnc(-c4ccccc4C)n3c2=O)cc1 | / | 14577 | / | -4 | / | -30 | /
CCn1c(CCc2ccccc2)nc2ccccc21 | 5 | 4006 | 14 | 1 | 2.3 | -28 | 11
O=C(CNC(=O)c1cccs1)NN=Cc1cccc(Br)c1 | -7 | / | 2 | / | 2.6 | / | 2
COc1cc(/C=C(\C#N)c2ccccn2)ccc1OCC(=O)Nc1ccc(Br)cc1 | 4 | 8612 | -7 | 10 | 19 | -30 | 4
Cc1ccc(Cl)cc1NC(=O)CN1CCN(S(=O)(=O)N2CCC(C)CC2)CC1 | 6 | 4264 | 10 | -6 | -0.7 | -5 | 3
COc1ccccc1C(CC(=O)O)NS(=O)(=O)c1ccc2c(c1)N(C(C)=O)CC(C)O2 (stereo not given) | 11 | 5428 | 0 | -6 | -0.1 | -5 | 0
O=C1CC(N2CCN(c3ccccc3)CC2)C(=O)N1c1cccc(Br)c1 (stereo not given) | -6 | 4113 | 1 | 1 | 1.9 | -17 | -3
CCOC(=O)CNC(=O)c1ccc2[nH]c3ccccc3c2c1 | 12 | 2705 | 6 | -2 | -2.4 | -17 | 6
Cc1cccc(C)c1NC(=S)N(CCCN1CCCCC1)Cc1ccco1 | 5 | 4221 | -4 | 18 | 0.9 | -22 | 3
Oc1ccc(C=Nc2cccc3ccccc23)c(O)c1 | / | 3199 | / | 3 | / | -35 | /

Source: PubChem BioAssay
